miR-21 FLuc = raises the signal of a miR-21 reporter; HeLa miR-21 FLuc reporter, luciferase, 48 h; Potency, µM (doses to about 38.3 µM), for the others: top-dose reporter change, positive = more light; 340,000 tested, under 10 active; AID 2288; active = well fitted rising curve with a large enough effect; inconclusive = small, poorly fitted or top-dose-only effect; inactive = no such curve, though single readings can be large or run the other way;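 also: % of control where 0% means no effect; miR-21 action dims this reporter so a rising signal means less miR-21 action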
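HeLa miR-21-FLuc reporter line, endogenous miR-21; 2000 cells/well in DMEM/10% FBS; compound titration up to ~40uM final, 48 h, 37 degree Celsius; luciferase detection reagent, 15 min lysis, CCD luminescence.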
Rango-impB inh = Rango-importin beta binding inhibition; Q14974; Rango CFP/YFP FRET sensor + importin beta, 45 min; Potency, µM (series often up to 92.2 µM), for the others: at the highest dose inhibition of complex formation; 340,000 tested, 0.031% active; AID 540263; active = rising FRET ratio curve, often small or poorly fitted; inconclusive = mostly compound fluorescence or quenching in the first reads; inactive = flat curves in all reads;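 also: potency is read from the fitted curve at half-maximal effect; 0% = DMSO wells and 100% = buffer wells lacking importin beta; nearly all actives have a fitted effect of over 15% in size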
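FRET biosensor (snurportin 1 IBB flanked by EYFP and cerulean), 50 nM, with compound 5 min, then 0.125 microM importin beta in PBS, 1 mM DTT, 0.02% Tween-20, 0.1% BSA. CFP/YFP ratio read after 45 min at room temperature; pre-read flags interference.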
Rango dissoc inh = inhibitors of RanGTP-induced Rango-importin beta complex dissociation | Biochemical FRET Rango-importin beta, RanGTP-induced dissociation | Potency, µM (doses to about 46.1 µM), without a hit: top-dose activity change, negative = inhibition | O95149+P62826 | 340,000 tested, 0.071% active; active means falling FRET ratio curve, often poorly fitted, with flat reads before Ran was added; inconclusive means other falling curves, or compound fluorescence or quenching; inactive means flat or rising ratio curve;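 also: potency is read from the fitted curve at half-maximal effect; % of control where 0% means no effect; nearly all actives have a fitted effect of over 45% in size; -100% = wells without RanGTP and RCC1; the record marks most hits as doubtful in a second field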
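Two FRET readings bracket the reaction: one 5 min after compound meets Rango–importin beta, another 45 min after RanGTP-RCC1 (0.6 uM Ran, 0.2 uM RCC1, 2 mM GTP) is added. Only the second defines inhibition.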
GLA inh pH 4.5 = inhibitors of human alpha-galactosidase A at pH 4.5; P06280; purified enzyme, 4-MU-alpha-Gal fluorescence, pH 4.5; activity change, negative = inhibition, % at 105 µM; 230,000 tested, under 10 active; inconclusive = small, poorly fitted or top-dose-only inhibition, or a rising curve; inactive = flat fitted curve, though single readings scatter; no compound was filed as active;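 also: 0% = full activity with enzyme and -100% = basal without enzyme; dose as in the result columns while the protocol names 77 µM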
Target sequence (P06280 whole entry, looked up): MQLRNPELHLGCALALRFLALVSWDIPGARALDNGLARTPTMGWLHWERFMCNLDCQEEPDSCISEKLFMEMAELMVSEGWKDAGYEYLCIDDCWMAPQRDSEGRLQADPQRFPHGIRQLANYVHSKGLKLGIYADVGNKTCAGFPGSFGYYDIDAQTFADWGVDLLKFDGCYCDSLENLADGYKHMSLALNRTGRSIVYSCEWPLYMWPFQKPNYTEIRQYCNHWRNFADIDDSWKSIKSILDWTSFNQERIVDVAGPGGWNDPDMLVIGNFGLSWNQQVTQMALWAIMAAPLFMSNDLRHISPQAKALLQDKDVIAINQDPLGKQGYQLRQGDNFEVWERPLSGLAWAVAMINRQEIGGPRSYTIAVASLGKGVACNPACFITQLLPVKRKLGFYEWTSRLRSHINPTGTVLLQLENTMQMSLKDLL
Numbers without * were called inactive; ? = inconclusive; . = no result given; & = joins results of further samples.

compound | Rango-impB inh | miR-21 FLuc | Rango dissoc inh | GLA inh pH 4.5
CCCN=C1N(CC)C[C@@H]2[C@@H]3C(=O)N(C)C(=O)[C@@H]3[C@](Cc3ccccc3)(C(=O)OC)N12 | -1.9% | . | -1.7% | .
CCCCN(C)C(=O)c1cn(C)c2ccc(S(=O)(=O)N3CCC(C)CC3)cc2c1=O | 4.0% | 1.9%&0.3% | 19.4% | .
CCCCC(=O)Nc1ccc(C(=O)NCCc2ccc(S(N)(=O)=O)cc2)cc1 | -2.1% | -2.6% | -5.0% | 2.9
Nc1nonc1-n1nnc(C(=O)N/N=C/c2ccc(OCc3ccc(F)cc3)cc2)c1COc1ccccc1 | 2.5% | -28.5% | 6.5% | 5.6
O=S1(=O)C=C(SCc2ccc(Cl)c(Cl)c2)Nc2ccccc21 | 6.6% | 10.7% | -10.7% | 2.5
COc1ccc(Nc2nc(N)nc(CSc3nnc(C)s3)n2)cc1 | ? | -76.4% | -9.4% | -2.4
CC1(C(=O)N/N=C/c2cc3c(cc2Br)OCO3)CC1(Br)Br (stereo not given) | 0.0% | -6.9% | -2.7% | .
N#CCCn1[nH]c(-c2ccccc2)cc1=O | 1.1% | -4.4% | 14.4% | 7.1
Cc1ccc(C(=O)Cn2nnc3ccccc32)cc1C | 5.3% | -61.1% | -13.9% | 12.6
CN(C(=O)c1cccc(NC(=O)Cc2cccc(NC(=O)C3CCN(C(=O)C4CCC4)CC3)c2)c1)C1CCC1 | 0.0% | . | 6.3% | .
CC(C)C1COS(=O)(=O)NC1CC(=O)SC(C)(C)C (stereo not given) | 0.3% | -1.2% | 9.4% | .
Cc1ccc(S(=O)(=O)N2CCCN(C(=O)CNC(=O)c3cccc(C)c3)CC2)cc1 | -2.0% | . | -18.0% | .
O=C(NNc1ccccc1)C(CCO)C(=O)NNc1ccccc1 | 0.8% | 8.2% | 0.7% | -10.2
CCOC(=O)C1CCN(C(c2ccccn2)c2c(C)[nH]c3ccccc23)CC1 (stereo not given) | 0.5% | 2.6% | -7.3% | -3.9
Cc1ccc(S(=O)(=O)n2nc(C)c(C#N)c2N)cc1 | 0.4% | 0.0% | -7.7% | -7.1
Cc1ccc(OCc2nnc(N)s2)cc1C | -0.3% | -49.6% | 0.0% | -1.8
COc1ccccc1NC(=O)Cn1cncc1-c1ccc([N+](=O)[O-])cc1 | -0.8% | -10.0% | 3.0% | -14.1
O=C(NCc1ccccc1Cl)C(=O)c1c[nH]c2ccccc12 | -3.4% | -39.0% | -14.7% | -17.7
COC(=O)Cc1c(O)ccn(Cc2cccc3ccccc23)c1=O | -3.3% | -5.0% | -0.6% | 8.1
O=Cc1c(NCCN2CCOCC2)c2ccccc2[nH]c1=O | -1.1% | 2.0% | 5.1% | .
Nc1ccnc(C(F)(F)F)c1C(=O)c1ccccc1 | 1.5% | 3.4% | -8.5% | 6.2
CC(NC(=O)c1ccc(F)cc1)c1nc2ccccc2n1Cc1ccccc1F (stereo not given) | 0.5% | 1.3% | -0.1% | 2.4
Cc1cc(NC2C3CC4CC(C3)CC2C4)n2nnnc2n1 (stereo not given) | 0.3% | -8.2% | -8.8% | 5.2
Cc1ccccc1CC1(CO)CCCN(Cc2nc(-c3cccs3)oc2C)C1 (stereo not given) | 3.0% | -4.3% | -5.9% | -17.8
O=C(O)c1ccc(S(=O)(=O)c2ccc3c(c2)C(=O)N(c2ccc(O)cc2)C3=O)cc1 | -2.4% | 2.0% | -0.9% | 5.3
O=C(CN(Cc1ccccc1)C(=O)c1ccco1)NCc1ccc(F)cc1 | -0.4% | -1.4% | 9.1% | -4.8
CCOC(=O)c1cc(NC(=O)N(C(C)C)C2CCCCC2)c(C)nc1C | -0.1% | -0.9% | 4.3% | .
COc1ccc(NC(=O)C(=O)N/N=C/c2cc(C)n(-c3cccc(Cl)c3Cl)c2C)c(OC)c1 | 4.6% | 0.0% | 0.5% | 2.2
CCn1c(SCC(=O)Nc2ccc3[nH]c(=O)[nH]c3c2)nnc1-c1ccccc1 | -0.7% | 0.7% | -10.2% | 3.6
Cc1cccc(NC(=O)CSc2nc(C)c(Cc3ccccc3)c(=O)[nH]2)c1C | . | 12.1%&11.4% | . | 1.4
Cc1nn(-c2ccccc2)c(C)c1NC(=O)COc1ccc([N+](=O)[O-])cc1 | 0.0% | . | -6.0% | .
C=CCN(c1ccccc1)S(=O)(=O)c1cccc(C(=O)NC2CCC(O)CC2)c1 (stereo not given) | -1.2% | . | -0.4% | .
CC(=O)OCC(=O)C1CCC2C3CCC4=CC(=O)C=CC4(C)C3CCC12C (stereo not given) | 0.2% | . | -2.6% | .
CC1(C)CC(=O)C(CC(=O)Nc2cc(C(F)(F)F)ccc2Cl)C(=O)C1 | 0.4% | -0.3% | ? | -4.5
CCCCSCCCNC(=O)c1ccc2c(c1)N(CC)C(=O)c1ccccc1S2=O (stereo not given) | 0.1% | 19.0% | 0.6% | .
CCOc1ccc2c(C)nc(NC3=NC(C)(C)C=C(C)N3)nc2c1 | 7.7% | 3.1% | 3.8% | -5.6
Cc1ccc(/C=C2\SC(=S)N(c3cccnc3)C2=O)cc1 | -0.4% | -1.4% | 1.1% | 0.2
COC(=O)c1ccc(NC(=O)CN(c2ccc3c(c2)OCO3)S(C)(=O)=O)cc1 | 5.0% | -21.0% | 6.7% | -5.4
CCN(CC)CCCNC(=O)c1cc(Cl)c(NC(=O)C2=C(C)OCCS2)cc1OC | -3.8% | 0.1% | 0.3% | .
COc1cc(/C=C/C(=O)O)cc(S(=O)(=O)Nc2ccc3c(c2)OCO3)c1OC | -1.7% | -1.1% | 3.6% | -1.0
Cc1ccc(C)c(NS(=O)(=O)c2cc(C(=O)NCCSC3CCCCC3)ccc2C)c1 | 0.1% | 16.5% | 3.3% | ?
O=C(Nc1cccc([N+](=O)[O-])c1)C1CC(=O)N(C2CCCCC2)C1 (stereo not given) | -0.5% | -2.9% | -10.3% | -4.7
O=C(O)CCCNC(=O)CCCNC(=O)C(c1ccccc1)c1ccccc1 | 0.3% | 0.1% | 0.8% | 2.5
O=C(/C=C/c1ccccc1Cl)c1ccccc(=O)c1O | ? | ? | -19.0% | 5.1
CC(OC(=O)C1CCN(c2ccc(C(F)(F)F)cn2)CC1)C(=O)Nc1ccc(S(N)(=O)=O)cc1 (stereo not given) | -0.2% | -22.9% | -1.5% | .
CSc1ccccc1C(=O)NC1CCCN(Cc2ccccc2F)C1 (stereo not given) | -6.3% | -2.0% | -5.7% | .
O=S(=O)(c1ccc(-n2cnnn2)cc1)N1CCNCC1 | -0.8% | 1.2% | -0.6% | .
CN1CCN(CC(=O)Nc2ccc(Cl)cc2Cl)CC1 | -3.7% | -12.7% | 3.3% | -8.2
N=C1C(=O)OCC1c1ccccc1NC(=O)c1ccc(F)cc1 (stereo not given) | -1.2% | 2.4% | 4.8% | -12.6
CC1CCCCN1Cc1c(O)ccc2c(=O)c(-c3ccc(Br)cc3)coc12 (stereo not given) | 2.8% | -15.2% | 0.5% | .

The results go on:
compound | Rango-impB inh | miR-21 FLuc | Rango dissoc inh | GLA inh pH 4.5
CCOc1ccc(C(=O)CCC(=O)Nc2ccccc2C)cc1 | 5.1% | -6.2% | -8.9% | .
O=C(CN1C(=O)NC2(CCCc3ccccc32)C1=O)NCc1ccc(Cl)cc1Cl (stereo not given) | -0.6% | 17.6% | 18.9% | .
CC(C(=O)N(C)Cc1ccccc1)N1CCN(C/C=C/c2ccccc2)CC1 (stereo not given) | 3.9% | 1.4% | 5.3% | 0.9
CCCCn1c(N)c(N(CCC(C)C)C(=O)C2CC(=O)N(CCc3ccc(OC)c(OC)c3)C2)c(=O)[nH]c1=O (stereo not given) | 4.2% | . | 8.2% | .
C[C@@]12C(=O)Nc3cc(F)c(F)cc3C(=O)N1[C@H]1c3cc(Cl)ccc3OC[C@@H]1[C@@H]2c1ccccc1 | ? | . | -0.3% | .
Cc1ccc(Nc2c(F)c(F)c(F)c(F)c2C(=O)O)cc1 | -1.7% | 0.9% | 0.5% | 9.5
CC1CC(NS(=O)(=O)c2cc3c4c(c2)CCN4C(=O)CC3)CC(C)(C)C1 (stereo not given) | 0.2% | . | -0.6% | .
COC(=O)C1C2CC(=O)C(C2)C1C(=O)OC (stereo not given) | 0.7% | . | 1.4% | .
O=C(COc1ccccc1/C=C1\SC(=S)NC1=O)Nc1ccc(F)cc1 | -0.2% | . | -0.9% | .
CN(C)CCCN(C(=O)C1=COCCO1)c1nc2ccc(Br)cc2s1 | -2.1% | -7.7% | 6.5% | .
COC(=O)c1sc(N)c(C(=O)OC)c1CSc1nnc(-c2ccccc2Cl)n1C | 3.2% | -0.7% | 1.1% | 4.6
CCCCN(C)CCOc1ccccc1OCC | 4.0% | -4.7% | 2.8% | 4.7
C=Cn1ccnc1P(=S)(c1ccc2c(c1)c1ccccc1n2CC)c1nccn1C=C | 4.1% | -1.8% | 13.6% | -1.8
CCOC(=O)c1c(-c2ccc(C)cc2)csc1NC(=O)CCSc1nnc2ccccn12 | ? | -2.6% | -4.3% | 13.2
CNC(=O)CSc1nnc(-c2cccnc2)n1CCc1ccccc1 | 0.1% | -9.2% | 6.4% | -10.1
CCOc1cc(N2CCOCC2)c(OCC)cc1NC(=O)CSc1ccccc1C(=O)O | -2.5% | . | -8.4% | .
CC1CCN(S(=O)(=O)c2cccc(C(N)=O)c2)CC1 | 0.1% | 1.5% | 1.2% | -1.4
C/C(=N/NC(=O)CN1CCN(Cc2ccccc2Cl)CC1)c1ccncc1 | -0.6% | -8.6% | 4.4% | -0.8
CC1Cc2nc(SCC(=O)N3CCCC3)n(C)c(=O)c2S1 (stereo not given) | -3.1% | -1.9% | -1.1% | 4.6
O=C(Nc1ccc(C(=O)N2CCC(O)(c3ccc(Cl)c(C(F)(F)F)c3)CC2)cc1)c1ccc(Br)o1 | -2.8% | . | 32.5% | .
CC1(C)C(=O)Nc2ccccc2N1C(=O)COc1ncnc2c(Cl)cc(Cl)cc12 | -0.5% | 5.8% | 10.8% | 8.7
COc1ccc(Cl)cc1NC(=O)COC(=O)C(CC(C)C)N1C(=O)C2CC=CCC2C1=O (stereo not given) | -0.9% | -0.4% | -7.2% | -2.4
CCOCCCNC(=O)CCCn1nc(C)n2c(cc3sccc32)c1=O | 2.9% | -10.9% | 0.3% | 3.5
CC1CCCCN1CCNC(=O)c1ccc2c(c1)N(Cc1ccccc1)C(=O)c1ccccc1S2(=O)=O (stereo not given) | 5.9% | -5.2% | -0.6% | .
CC12C=CC(=O)C=C1CCC1C2CCC2(C)C(C(=O)CO)CCC12 (stereo not given) | -1.1% | . | -12.5% | .
CC(/C=N/NC(=O)CSc1nc2ccccc2n1C)=C\c1ccco1 | -1.2% | 2.5% | 0.3% | -21.8
CCN1C(=O)C2(C(C#N)=C(N)Oc3cc(C)oc(=O)c32)c2ccccc21 (stereo not given) | 7.8% | 0.9% | -14.0% | 1.3
CCn1c(CC(=O)Nc2ccccc2)n[nH]c1=S | -0.8% | -0.3% | 2.3% | 6.3
O=C(NCCN1CCCCC1)Nc1ccccc1Cl | 4.4% | 0.5% | -17.0% | .
C=CCN(CC=C)C(=O)C1CC(=O)N(c2ccc(Br)cc2)C1 (stereo not given) | 2.3% | -9.0% | 0.9% | -0.2
COC(=O)c1c(-c2snnc2C)n[nH]c1C | 8.5% | 2.6% | 20.8% | 5.0
CCOC(=O)C1CCN(C(=O)C2CCN(S(=O)(=O)c3cc(Cl)ccc3Cl)CC2)CC1 | 2.3% | 3.8% | -16.8% | -10.5

Random excerpt: 3 records from the list, in no set order.
compound | Rango-impB inh | miR-21 FLuc | Rango dissoc inh | GLA inh pH 4.5
CSc1ccccc1C(=O)NC1CCCN(Cc2ccccc2F)C1 (stereo not given) | -6.3% | -2.0% | -5.7% | .
O=C(Nc1cccc([N+](=O)[O-])c1)C1CC(=O)N(C2CCCCC2)C1 (stereo not given) | -0.5% | -2.9% | -10.3% | -4.7
CCOCCCNC(=O)CCCn1nc(C)n2c(cc3sccc32)c1=O | 2.9% | -10.9% | 0.3% | 3.5

From PubChem BioAssay

Not all compounds are listed; count on the stated rates, not on these rows.
